Screening data as filed in PubChem BioAssay.
Rango complex inh: qHTS Assay for Inhibitors of Rango (Ran-regulated importin-beta cargo) - Importin beta complex formation. AID 540263, 2011. Potency, µM (titrated, usually from 92.2 µM), for the others: at the top dose inhibition of complex formation. Rango CFP/YFP FRET sensor + importin beta, 45 min. 340,000 compounds, 0.031% hits; active = rising FRET ratio curve, often small or poorly fitted; inconclusive = mostly compound fluorescence or quenching in the first reads; inactive = flat curves in all reads;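 note: potency is the fitted concentration of half-maximal effect; 0% = DMSO wells and 100% = buffer wells lacking importin beta; nearly all actives have a fitted effect of over 15% in size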
Target sequence (Q14974 whole entry, looked up): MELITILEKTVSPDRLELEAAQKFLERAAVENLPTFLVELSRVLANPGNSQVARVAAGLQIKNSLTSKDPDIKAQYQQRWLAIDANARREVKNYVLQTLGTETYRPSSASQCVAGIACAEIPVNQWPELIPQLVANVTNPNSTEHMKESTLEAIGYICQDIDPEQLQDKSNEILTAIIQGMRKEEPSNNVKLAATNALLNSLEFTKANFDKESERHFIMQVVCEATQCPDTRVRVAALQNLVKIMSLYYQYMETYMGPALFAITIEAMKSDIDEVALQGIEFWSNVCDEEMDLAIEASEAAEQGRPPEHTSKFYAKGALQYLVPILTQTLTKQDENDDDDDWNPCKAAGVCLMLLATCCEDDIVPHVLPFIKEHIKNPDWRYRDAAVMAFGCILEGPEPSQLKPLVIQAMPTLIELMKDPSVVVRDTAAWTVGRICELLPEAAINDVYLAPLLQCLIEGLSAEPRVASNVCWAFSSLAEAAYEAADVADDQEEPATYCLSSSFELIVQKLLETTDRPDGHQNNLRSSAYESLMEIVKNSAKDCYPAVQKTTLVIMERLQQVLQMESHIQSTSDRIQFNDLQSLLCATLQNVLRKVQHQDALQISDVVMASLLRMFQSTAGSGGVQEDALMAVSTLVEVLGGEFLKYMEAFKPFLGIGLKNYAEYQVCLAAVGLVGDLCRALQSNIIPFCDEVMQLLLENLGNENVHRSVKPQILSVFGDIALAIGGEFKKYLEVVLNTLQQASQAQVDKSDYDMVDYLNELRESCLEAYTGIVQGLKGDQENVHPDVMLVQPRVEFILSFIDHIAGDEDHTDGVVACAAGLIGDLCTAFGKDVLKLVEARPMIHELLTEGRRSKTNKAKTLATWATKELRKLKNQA
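Inhibition scored from the CFP 486 nm/YFP 530 nm FRET ratio 45 min after adding 0.125 microM importin beta to 50 nM Rango biosensor preincubated 5 min with compound (room temperature, PBS with DTT, Tween-20, BSA). No-importin wells as positive control.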
GLA inh pH 4.5: qHTS Assay for Inhibitors of Human alpha-Galactosidase at pH 4.5; Alpha-galactosidase A (Homo sapiens), P06280; purified enzyme, 4-MU-alpha-Gal fluorescence, pH 4.5; activity change, negative = inhibition, % at 105 µM; 230,000 tested, under 10 active; AID 1467, 2008; inconclusive = small, poorly fitted or top-dose-only inhibition, or a rising curve; inactive = flat fitted curve, though single readings scatter; no compound was filed as active;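 note: 0% = full activity with enzyme and -100% = basal without enzyme; dose as in the result columns while the protocol names 77 µM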
miR-21 reporter: qHTS Assay for Modulators of miRNAs and/orActivators of miR-21; HeLa miR-21 FLuc reporter, luciferase, 48 h; Potency, µM (titrated, usually from 38.3 µM), for inactives: at the highest dose reporter change, positive = more light; 340,000 tested, under 10 active; AID 2288, 2010; active = well fitted rising curve with a large enough effect; inconclusive = small, poorly fitted or top-dose-only effect; inactive = no such curve, though single readings can be large or run the other way;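 note: % of control where 0% means no effect; miR-21 action dims this reporter so a rising signal means less miR-21 action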
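Luminescence from a firefly luciferase reporter carrying a miR-21 binding site downstream, stably expressed under a CMV promoter in HeLa cells that make miR-21 endogenously, reports miRNA modulation after 48 h compound exposure up to approximately 40uM final.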
Rango release inh: qHTS Assay for Inhibitors of RanGTP induced Rango (Ran-regulated importin-beta cargo) - Importin beta complex dissociation | 340,000 compounds, 0.071% hits | Potency, µM (titrated, usually from 46.1 µM), inactives show at the highest dose activity change, negative = inhibition | AID 540253, 2011 | Biochemical FRET Rango-importin beta, RanGTP-induced dissociation; active means falling FRET ratio curve, often poorly fitted, with flat reads before Ran was added; inconclusive means other falling curves, or compound fluorescence or quenching; inactive means flat or rising ratio curve;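 note: potency is the fitted concentration of half-maximal effect; % of control where 0% means no effect; nearly all actives have a fitted effect of over 45% in size; -100% = wells without RanGTP and RCC1; the record marks most hits as doubtful in a second field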
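Compounds sat 5 min at room temperature with 0.1 uM Rango biosensor plus 0.25 uM importin beta, then FRET pre-read. RanGTP-RCC1 (0.6 uM Ran, 2mM GTP, 0.2 uM RCC1) added for 45 min, and the CFP/YFP post-read measured blocked complex dissociation.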
* hit, by the source's call; ? = inconclusive; . = no result given.

Abbreviations: A = Rango complex inh; B = GLA inh pH 4.5; C = miR-21 reporter; D = Rango release inh
Structure: CC(C)NC(=O)CCc1nnc(Cc2cccc(C(F)(F)F)c2)o1
  A: 0.4% | B: 6 | C: -44% | D: -10%
Structure: COc1ccc(NC(=O)c2cc(-c3ccccc3OC)on2)cc1
  A: 2.4% | B: -6 | C: -5% | D: 5%
Structure: CCOC(=O)C1(Cc2cccc(OC)c2)CCCN(C(=O)CCc2cccnc2)C1 (stereo not given)
  A: 0.2% | B: -26 | C: -55% | D: 25%
Structure: CN1C2CCC1CC(NS(=O)(=O)c1ccc(C#N)cc1)C2 (stereo not given)
  A: 0.5% | B: . | C: 1% | D: 0%
Structure: CCSc1nnc(NC(=O)c2ccc3ccccc3n2)s1
  A: 6.8% | B: 0 | C: -45% | D: 9%
Structure: C=CCn1c(=O)n2ncnc2c2c3c(sc21)CCCC3
  A: 0.5% | B: 8 | C: -10% | D: -3%
Structure: Cc1nn(C(C)(C)C)c(OC(=O)c2ccco2)c1Sc1ccccc1
  A: 10% | B: 2 | C: 2% | D: -3%
Structure: COc1cc(NC(=O)c2cccs2)ccc1NC(=O)c1ccco1
  A: -0.6% | B: -4 | C: -53% | D: -6%
Structure: O=C(Nc1cccc(-c2cnc3ccccc3n2)c1)c1cccc(NC(=O)c2ccco2)c1
  A: 0.3% | B: 1 | C: -3% | D: 1%
Structure: COc1ccc2oc(C(=O)OCC(=O)/C(C#N)=C(\C)N)c(C)c2c1
  A: 0.5% | B: 8 | C: -4% | D: -1%
Structure: O=C(CN(c1ccc2c(c1)OCCO2)S(=O)(=O)c1ccccc1)NCc1ccc(Cl)cc1
  A: -3.3% | B: 3 | C: 12% | D: 0%
Structure: Cc1ccc(S(=O)(=O)Nc2ccc3ncccc3c2[N+](=O)[O-])cc1
  A: -2.6% | B: . | C: . | D: 9%
Structure: COC(=O)[C@H](CCSC)NC(=O)Nc1cc(OC)cc(OC)c1
  A: -0.4% | B: 10 | C: -2% | D: 5%
Structure: CN(C)C(=O)NCc1ccc(S(N)(=O)=O)cc1
  A: 0.1% | B: 5 | C: -2% | D: 1%
Structure: CCc1ccc(NC(=O)CSc2nnc(-c3cnccn3)n2Cc2ccco2)cc1
  A: -3.1% | B: -6 | C: -19% | D: 35%

Next part, overlapping the part above by 6 compounds.
Abbreviations: A = Rango complex inh; B = GLA inh pH 4.5; C = miR-21 reporter; D = Rango release inh
Structure: COc1ccc2oc(C(=O)OCC(=O)/C(C#N)=C(\C)N)c(C)c2c1
  A: 0.5% | B: 8 | C: -4% | D: -1%
Structure: O=C(CN(c1ccc2c(c1)OCCO2)S(=O)(=O)c1ccccc1)NCc1ccc(Cl)cc1
  A: -3.3% | B: 3 | C: 12% | D: 0%
Structure: Cc1ccc(S(=O)(=O)Nc2ccc3ncccc3c2[N+](=O)[O-])cc1
  A: -2.6% | B: . | C: . | D: 9%
Structure: COC(=O)[C@H](CCSC)NC(=O)Nc1cc(OC)cc(OC)c1
  A: -0.4% | B: 10 | C: -2% | D: 5%
Structure: CN(C)C(=O)NCc1ccc(S(N)(=O)=O)cc1
  A: 0.1% | B: 5 | C: -2% | D: 1%
Structure: CCc1ccc(NC(=O)CSc2nnc(-c3cnccn3)n2Cc2ccco2)cc1
  A: -3.1% | B: -6 | C: -19% | D: 35%
Structure: C=C(C)C(=O)Oc1ccc(N2C(=O)CCC2=O)cc1
  A: 0.3% | B: 5 | C: 2% | D: -3%
Structure: O=C(Cn1[nH]c(=O)c2ccccc2c1=O)OCC(=O)c1ccccc1
  A: -3.2% | B: . | C: . | D: 7%
Structure: COC(=O)c1cccc(NC(=O)CN2C(=O)c3ccccc3C2=O)c1
  A: -3.0% | B: . | C: 3% | D: -6%
Structure: CCS(=O)(=O)N1Cc2ccccc2CC1C(=O)Nc1ccc(NC(C)=O)cc1 (stereo not given)
  A: -2.3% | B: 0 | C: -9% | D: 0%
Structure: Cc1ccc(-c2nn3c(-c4ccco4)nnc3c3ccccc23)cc1S(=O)(=O)N1CCOCC1
  A: . | B: 1 | C: 0% | D: .
Structure: O=C(Cn1c(=O)c(=O)n(Cc2ccccc2)c2ccc(Cl)cc21)NCC1CCCO1 (stereo not given)
  A: -2.8% | B: 5 | C: 0% | D: -3%
Structure: CC(=O)c1ccc(NCC(=O)N2CCN(S(=O)(=O)c3ccccc3)CC2)cc1
  A: 6.2% | B: . | C: . | D: 4%
Structure: CC(C)N(C(=O)[C@H]1C[C@H](CC(=O)NCCc2ccccn2)C(=O)N2CCc3c([nH]c4cc(CCC(=O)N(C)C)ccc34)[C@]12C)C(C)C
  A: -0.2% | B: . | C: . | D: -1%
Structure: CC(C)(C)c1cc(C(=O)NNC(=O)Nc2ccccc2)n(Cc2ccccc2)n1
  A: 8.3% | B: -1 | C: 12% | D: 16%
Structure: COc1ccc(NS(=O)(=O)c2cc(NC(=O)c3sccc3C)ccc2N2CCOCC2)cc1
  A: 7.0% | B: -8 | C: 16% | D: 20%
Structure: O=C(/C=C/c1ccc2c(c1)OCO2)c1ccc[nH]1
  A: ? | B: -4 | C: -74% | D: ?
Structure: O=P(OC1CCCCC1)(OC1CCCCC1)C(O)c1cccnc1 (stereo not given)
  A: 2.9% | B: 8 | C: 0% | D: 5%
Structure: O=C(c1scc2c1CCCC2)N1CCCCC1
  A: -1.6% | B: 13 | C: -7% | D: -4%
Structure: CCOC(=O)C1CCCN(CCC(=O)Nc2ccccc2)C1 (stereo not given)
  A: 3.8% | B: 8 | C: 0% | D: 3%
Structure: CCS(=O)(=O)c1nc(S(=O)(=O)c2ccc(C)cc2)c(N2CCCC2)s1
  A: 1.2% | B: . | C: 1% | D: 0%

Continued:
Compound	Rango complex inh	GLA inh pH 4.5	miR-21 reporter	Rango release inh
CCOc1cc(/C=C/c2cc(C(F)(F)F)[nH]c(=O)n2)ccc1O	?	-10	15%	?
CCOC(=O)c1c(O)c2cccc3c2n(c1=O)CC3	-0.6%	2	6%	-6%
O=C(Cn1c(NCCO)nc2ccccc21)c1ccccc1	0.5%	13	-26%	9%
CCCCn1c(=N)n(CC(=O)c2ccc(OC)cc2)c2ccccc21	.	-4	22%	.
CCN1CCCC(OC(=O)c2cc(-c3ccc(C)cc3)nc3ccccc23)C1 (stereo not given)	9.0%	-10	-9%	1%
COC(=O)CC1=C(C(=O)OC)C(c2ccc3c(c2Cl)OCO3)C(C#N)=C(N)O1 (stereo not given)	-0.8%	-2	-5%	-1%
Cc1cc(C)c(C)c(OCC(=O)O/N=C(\N)c2cccnc2)c1	0.7%	-2	0%	7%
c1cn(CCCNc2ncnc3nc[nH]c23)cn1	-4.3%	3	0%	4%
CSc1ccccc1NC(=O)c1ccncc1	-0.8%	-3	-6%	1%
O=C(NNc1nc2c(F)cc(F)cc2s1)C1COc2ccccc2O1 (stereo not given)	-1.4%	-1	0%	11%
COc1ccc(CCn2c(=N)c(C(=O)NCC3CCCO3)cc3c(=O)n4cccc(C)c4nc32)cc1 (stereo not given)	?	.	-2%	?
CCN1CCN(C(=O)Nc2ccc(OC)cc2OC)CC1	0.7%	11	0%	26%
Cc1cc(/C=C2\C(=N)N3N=CSC3=NC2=O)c(C)n1Cc1ccccc1	?	-21	-16%	-3%
COCCNC(=O)C(C#N)c1nc2ccccc2nc1N1CCCCCC1 (stereo not given)	?	8	0%	?
CC(C)Cc1ccc(S(=O)(=O)N2CCCC2)cc1	0.8%	-9	0%	-21%
Cc1ccc(Cc2nnc(SCC(=O)Nc3ccccc3C)[nH]c2=O)cc1	2.2%	.	.	-1%
COc1ccc(S(=O)(=O)N2CC3CCCN3c3cc(C(F)(F)F)ccc32)cc1 (stereo not given)	5.4%	-28	1%	1%
CC(O)C(NS(=O)(=O)c1ccc(Cl)cc1)C(=O)OCc1nnc(-c2ccccc2)o1 (stereo not given)	1.7%	-12	-5%	-1%
Cc1ccc(C)c(NC(=O)COC(=O)c2cccc(S(=O)(=O)N3CCCCC3)c2)c1	-0.9%	.	.	-2%
CCOC(=O)c1cnc(/N=C/N(C)C)s1	?	-14	-17%	?

More entries.
Compound	Rango complex inh	GLA inh pH 4.5	miR-21 reporter	Rango release inh
COc1ccc(C(=O)CSc2nc3ncccc3[nH]2)cc1OC	8.1%	-3	4%	-13%
CCc1nnc(NC(=O)CSc2ccc(-c3ccco3)nn2)s1	-4.2%	-6	-7%	-10%
CC(C)C(OC(=O)c1cccs1)C(=O)NCc1cccs1 (stereo not given)	-0.2%	-5	0%	0%
CCc1c(C)c2ccc(OC(C)C(=O)NC(Cc3c[nH]c4ccc(O)cc34)C(=O)O)c(C)c2oc1=O (stereo not given)	3.7%	.	1%	1%
NNC(=O)c1cc2c(s1)CCCCCC2	0.1%	3	18%	-8%
O=C(c1cc([N+](=O)[O-])ccc1Cl)N1CCN(Cc2ccc3c(c2)OCO3)CC1	0.2%	4	-1%	-8%
Cn1nnnc1SCC(=O)NC1CCCCC1	4.2%	1	-8%	?
CCOC(=O)Cc1csc(NC(=O)C(NC(=O)C2CCC(C)CC2)C(C)C)n1 (stereo not given)	2.8%	.	0%	-1%
CN(C)CCCSc1nc(-c2ccccc2)nc2c1CCC2	-2.2%	-7	-14%	-11%
Cc1ccc(OCc2ccc(C(=O)Nc3nccs3)o2)cc1	-0.4%	-8	-24%	27%
CCN(C[C@H]1N[C@@](Cc2ccccc2)(C(=O)OC)[C@H]2C(=O)N(C)C(=O)[C@@H]12)S(=O)(=O)c1ccc(-c2ccccc2)cc1	-1.1%	.	.	-11%
CCSC1=C(C#N)C2(CCCCC2)C2=C(CC(C)(C)CC2=O)N1	?	2	-23%	-15%
COc1ccc(C2(C)NC(=O)N(CC(=O)Nc3ccc(S(=O)(=O)N4CCCC4)cc3)C2=O)cc1 (stereo not given)	-0.3%	-7	3%	-4%
COc1ccc(Cl)cc1N/C(N)=N/c1nc(C)cc(=O)[nH]1	3.8%	-12	0%	0%
CCOC(=O)c1ccc(NC(=O)CSc2nc3c(c(=O)n2-c2ccccc2OC)SCC3)cc1	-4.2%	-6	3%	15%
COc1cccc(C2C(C(=O)Nc3ccc(C)cc3C)=C(C)Nc3ncnn32)c1OC (stereo not given)	2.1%	4	-3%	15%
Cc1ccc(N2CC(C(=O)OCc3ccc([N+](=O)[O-])cc3)CC2=O)cc1 (stereo not given)	-0.8%	-12	-4%	4%
CC(C(=O)Nc1ccc2c(c1)OCO2)N(C)CC(=O)Nc1ccc(Cl)cc1 (stereo not given)	0.3%	.	.	3%

3 of the entries above in order of the Rango release inh value, descending.
Compound	Rango complex inh	GLA inh pH 4.5	miR-21 reporter	Rango release inh
O=C(Nc1cccc(-c2cnc3ccccc3n2)c1)c1cccc(NC(=O)c2ccco2)c1	0.3%	1	-3%	1%
CCS(=O)(=O)c1nc(S(=O)(=O)c2ccc(C)cc2)c(N2CCCC2)s1	1.2%	.	1%	0%
C=CCn1c(=O)n2ncnc2c2c3c(sc21)CCCC3	0.5%	8	-10%	-3%

These rows are one share of the data (hit frequency here may not be typical).
